# Ecoli rRNA inh: reduced GFP signal of wild-type E. coli, primary screen, bacterial rRNA inhibitor project, GFP/RFP fluorescence, OD600, single point; GFP signal change (wild-type ribosome), % (concentration not given with the values); 350,000 tested, 1.6% active; E. coli WT GFP vs humanized-ribosome RFP mutants, 24 h; stronger effect = lower value; DMSO median 0, no signal -100;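 active means significant combined selectivity score with lowered wild-type GFP, culture density cut under 30%, mutant RFP and density less affected; inactive means any of these conditions unmet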; further: one replicate is shown; some compounds called inactive have numbers as strong as hits
# E coli growth: E. coli growth inhibition, primary screen, OD600 | Escherichia coli growth, 23 h; stronger effect = lower value | OD600 absorbance (concentration not given with the values) | 330,000 tested, 0.21% active;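 active means OD600 absorbance below the run mean of sample wells minus 3.6 SD, in any replicate, cut at about 0.56 in these data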;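 further: stock transfer was 300 nL into about 60 µL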
# AF4-AF9 inh: inhibitors of AF4 peptide binding to AF9, primary screen, biochemical, AlphaScreen, biotin-AF4 peptide, FLAG-AF9, single point; inhibition, % at 10 µM; 350,000 tested, 0.47% active; AID 651704, 2012; Protein AF-9 (Homo sapiens), P42568;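 active means every replicate reaching a set inhibition limit, whatever the replicate mean, cut at about 25% in these data; inconclusive means mean inhibition reaches that limit but some replicates miss it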;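 further: 0% = plate neutral control median and 100% = total signal loss; the record names both 10 and 1 µM as test concentration; the first replicate is given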
# Target sequence (P42568 whole entry, looked up): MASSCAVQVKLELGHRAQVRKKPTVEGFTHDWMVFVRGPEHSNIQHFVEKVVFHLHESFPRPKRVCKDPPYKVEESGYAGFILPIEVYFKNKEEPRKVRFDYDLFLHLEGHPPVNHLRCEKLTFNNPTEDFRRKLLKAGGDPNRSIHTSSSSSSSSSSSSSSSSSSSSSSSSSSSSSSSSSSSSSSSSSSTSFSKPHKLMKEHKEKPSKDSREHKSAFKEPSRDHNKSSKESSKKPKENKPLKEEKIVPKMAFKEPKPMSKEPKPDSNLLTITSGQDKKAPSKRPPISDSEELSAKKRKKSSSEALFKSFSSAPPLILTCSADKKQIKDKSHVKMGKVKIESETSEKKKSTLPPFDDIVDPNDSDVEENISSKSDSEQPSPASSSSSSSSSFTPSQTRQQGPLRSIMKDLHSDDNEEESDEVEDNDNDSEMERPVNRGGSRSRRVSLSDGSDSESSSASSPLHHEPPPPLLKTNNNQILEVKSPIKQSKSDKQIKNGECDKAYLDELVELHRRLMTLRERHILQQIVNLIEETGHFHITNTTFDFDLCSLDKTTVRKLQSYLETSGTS
# ALR H2O2 inh: inhibitors of human ALR sulfhydryl oxidase, primary screen, biochemical, H2O2 detection, HRP-luminol luminescence, single point; FAD-linked sulfhydryl oxidase ALR (Homo sapiens), P55789; purified ALR, DTT oxidation; inhibition, % (test concentration not listed); 290,000 tested, 3.8% active;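 active means mean and each replicate at 75% or more; inconclusive means only one of the two met; inactive means neither met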;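 further: stock transfer was 7.5 nL into about 7.5 µL; 0% = neutral wells and 100% = wells with inactivated enzyme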
# Vif TR-FRET: inhibitors of Vif binding to APOBEC3G peptide, primary screen, biochemical, TR-FRET, GST-Vif 1-94, biotin-A3G peptide, dose response retest (AID 1117319) | Virion infectivity factor (Human immunodeficiency virus type 1 group M subtype B (isolate … | 260,000 tested, 0.57% active | TR-FRET GST-Vif / biotin-A3G peptide binding; higher % means a stronger effect; test concentration not given here; strong numbers were not always called active | one-dose inhibition, %; IC50 in µM for titrated hits;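 active means above the screen mean plus three standard deviations and confirmed in dose response; inconclusive means results disagree or hit not tested in dose response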;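 further: Vif residues 1-94 fused to GST binding biotinylated APOBEC3G peptide 110-148; 0% = full assay without inhibitor and 100% = GST in place of GST-Vif; retest series ran down from 100 µM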
# FGF22 binding: binders of human FGF22 protein, primary screen, FGF22 synaptogenesis inhibitor project, biophysical, thermal shift, single point | Fibroblast growth factor 22 (Homo sapiens), Q9HCT0 | recombinant FGF22 thermal shift, SYPRO orange fluorescence; percent of sucrose octasulfate shift, DMSO zero | calls only at 9.99 µM | 340,000 tested, 1.5% active | AID 651658, 2012;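 active means melting point raised past a set limit in the mean and every replicate; inconclusive means no clear call; three in four hits are not shown here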
# HNF4A DNA FP: change in binding of human HNF4A to DNA, primary screen, biochemical, fluorescence polarization, FITC-DNA; 360,000 tested, 0.3% active; activity change, % at 10 µM; 1 h; Hepatocyte nuclear factor 4-alpha (Homo sapiens), P41235; in the data active means activity change above about 30%, passing the limit was not always enough;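 further: controls were the assay level and a saturating level of protein; the project sought stronger binding though the title names inhibitors; some compounds called inactive have numbers as strong as hits; positive values seem to mean higher polarization but the record does not say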
# Target sequence (P41235 whole entry, looked up): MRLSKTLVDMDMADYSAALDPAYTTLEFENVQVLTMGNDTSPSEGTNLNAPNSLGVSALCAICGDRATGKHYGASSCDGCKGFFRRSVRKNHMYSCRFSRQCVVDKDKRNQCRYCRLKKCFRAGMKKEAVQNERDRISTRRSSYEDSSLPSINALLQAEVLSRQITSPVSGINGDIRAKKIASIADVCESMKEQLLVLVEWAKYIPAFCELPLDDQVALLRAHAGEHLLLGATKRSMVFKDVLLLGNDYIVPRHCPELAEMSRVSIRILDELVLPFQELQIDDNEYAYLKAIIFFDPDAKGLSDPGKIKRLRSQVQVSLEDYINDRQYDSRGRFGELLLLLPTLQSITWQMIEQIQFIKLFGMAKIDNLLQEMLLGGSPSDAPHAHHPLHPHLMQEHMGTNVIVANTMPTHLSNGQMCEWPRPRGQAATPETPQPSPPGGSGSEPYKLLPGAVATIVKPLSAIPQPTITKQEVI
# Ecoli rRNA inh OD600: also measured in Ecoli rRNA inh; calls as there; OD600 change, %; measured here: OD600 growth;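 optical density of the mix in the first replicate; 0 = DMSO median and -100 = no signal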
# Ecoli rRNA inh RFP: also measured in Ecoli rRNA inh; calls as there; RFP signal change, %; measured here: RFP humanized mutant strains;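 first replicate; 0 = DMSO median and -100 = no signal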
# Numbers without * were called inactive; i = inactive; ? = inconclusive; . = not tested or not shown; & = joins results of further samples.
SMILES,Ecoli rRNA inh,Ecoli rRNA inh OD600,Ecoli rRNA inh RFP,E coli growth,AF4-AF9 inh,ALR H2O2 inh,Vif TR-FRET,FGF22 binding,HNF4A DNA FP
O=C(CS(=O)CC(=O)N(CC(=O)NC1CCCC1)C1CCCC1)Nc1ccc(F)cc1 (centres undefined),.,.,.,0.71,.,-2,-3%,.,-0.3
COc1ccccc1-c1ccc2c(c1)O[C@H](CN(C)Cc1ccc3c(c1)OCO3)[C@H](C)CN([C@@H](C)CO)S2(=O)=O,-7,-11,7.6,.,0.4,.,.,i,.
COc1ccc(/C=C/C(=O)NCCn2c(C)cc3ccccc32)cc1OC,-6,5,39,0.74,1.6,-9,-2%,i,0.3
Cc1nc(C(F)(F)F)ccc1C(=O)N1CCC1(C)C(=O)NCc1cccs1 (centres undefined),15,11,0.8,.,-3.3,.,.,i,0.7
COc1cccc(NC(=O)CN2CCN(c3nc(-c4cccc(OC)c4)cs3)CC2)c1,.,.,.,0.69,.,-17,.,.,-1.8
O=C(Nc1ccc2c(c1)OCO2)c1cnn2c1NC(c1ccco1)CC2C(F)(F)F (centres undefined),.,.,.,0.75,.,-7,?,.,-0.5
CCCC1(C(=O)O)NC(c2ccccc2O)C2C(=O)N(Cc3ccccc3)C(=O)C21 (centres undefined),15,15,-0.4,0.77,-1.8,-20,1%,i,1.3
CCc1nnc(NC(=O)CN2CCN(c3ccccc3OC)CC2)s1,.,.,.,0.64,.,7,0%,.,1.2
CC(C)(C)c1nnc(NC(=O)CCn2cnc3ccccc3c2=O)s1,-13,-15,-5.5,0.7,-1.1,-3,-14%,i,1.8
CC(=O)/C(CN1CCCCC1)=N\O,12,13,-1.4,.,.,7,-8%,.,-0.1
COCCCNc1nc2ccccc2nc1NS(=O)(=O)c1cc(Cl)ccc1Cl,-17,-41,-7.1,0.68,-1.7,3,-1%,i,-2.4
CC(C)(C)c1ccc(Oc2ccc(NC(=O)c3ccco3)cn2)cc1,-15,-4,-3.6,0.64,5.8,12,-13%,i,-0.6
Nc1nc(-c2ccccc2)cc(-c2ccccc2)n1,-19,-16,-1.0,0.69,-0.9,-3,.,i,-0.6
O=C(Nc1cccc(S(=O)(=O)N2CCOCC2)c1)c1cn(-c2ccccc2)nc1-c1ccc(F)cc1,.,.,.,0.7,.,-2,-4%,.,1.0
COc1ccccc1NC(=O)c1cn(C)c(=O)c2cc(OC)c(OC)cc12,.,.,.,0.73,.,-6,-9%,.,-3.4
Cc1ccc(S(=O)(=O)N2CCOCC2)cc1C(=O)N1c2ccccc2Sc2ccccc21,.,.,.,0.75,.,-1,-2%,.,3.6
O=C(C1CCC1)N1[C@H](CO)[C@@H](c2ccccc2)C12CN(CCC(F)(F)F)C2,1,5,1.5,.,1.1,.,.,i,.
O=[N+]([O-])c1ccc(/C=N/Nc2ncc(-c3ccccc3)cn2)cc1,8,15,-0.4,.,-0.1,.,27%,i,-3.0
COc1ccc(C(=O)NC2=Nc3ccccc3N=C(C)C2c2ccccc2)cc1 (centres undefined),-29,-26,-2.7,0.63,1.1,6,4%,i,2.2
COc1ccc(C(=O)N2CCC2(C)C(=O)O)cc1C(F)(F)F (centres undefined),0,2,-2.4,.,1.4,.,.,i,-0.5
N#Cc1ccccc1NC(=O)COC(=O)c1ccc(S(=O)(=O)N2CCCC2)cc1,.,.,.,0.72,.,-3,66%,.,0.6
CC(C)(C)OC(=O)C[C@H]1C/C=C\C[C@@H](CC(=O)N(CCO)Cc2ccccc2)C(=O)N[C@H](Cc2c[nH]c3ccccc23)COC1=O,3,-14,-1.5,.,3.9,-2,.,i,-2.7
O=NN(CC(=O)NN=CC=Cc1ccccc1)CC(=O)NN=CC=Cc1ccccc1,1,11,3.8,.,3.9,.,.,i,-0.5
CO[C@H]1CN(C)C(=O)c2ccc(NC(C)=O)cc2OC[C@H](C)N(Cc2nccs2)C[C@@H]1C,1,-7,0.8,.,-3.1,.,.,i,.
COc1ccc(-c2sc3ccc(N4CCOCC4)cc3c2C#CC(C)(C)O)cc1,16,9,1.4,.,-3.1,-6,.,i,5.7

# Among those listed so far, these have a furan ring, fused or not.
SMILES,Ecoli rRNA inh,Ecoli rRNA inh OD600,Ecoli rRNA inh RFP,E coli growth,AF4-AF9 inh,ALR H2O2 inh,Vif TR-FRET,FGF22 binding,HNF4A DNA FP
O=C(Nc1ccc2c(c1)OCO2)c1cnn2c1NC(c1ccco1)CC2C(F)(F)F (centres undefined),.,.,.,0.75,.,-7,?,.,-0.5
CC(C)(C)c1ccc(Oc2ccc(NC(=O)c3ccco3)cn2)cc1,-15,-4,-3.6,0.64,5.8,12,-13%,i,-0.6

# Later entries.
SMILES,Ecoli rRNA inh,Ecoli rRNA inh OD600,Ecoli rRNA inh RFP,E coli growth,AF4-AF9 inh,ALR H2O2 inh,Vif TR-FRET,FGF22 binding,HNF4A DNA FP
Cc1ccc(-c2cc(C(=O)NCCCn3ccnc3)no2)cc1,-9,-10,-1.5,0.67,1.4,5,.,i,-3.7
OC(c1cccc(Cl)c1)c1ncc(-c2ccc(Oc3ccccc3)cc2)[nH]1 (centres undefined),-34,-60,0.4,.,0.3,.,.,i,1.6
C=CCNC(=O)c1cccc(Br)c1,10,15,1.6,0.66,.,-3,2%,.,-2.4
O=C(Oc1ccc(NC2=NS(=O)(=O)c3ccccc32)cc1)c1cccnc1,18,18,3.6,0.68,0.4,-5,0%,i,-1.6
NS(=O)(=O)c1ccc(N2CCOCC2)c(C(=O)NCc2cccs2)c1,8,17,0.0,0.68,-3.6,-3,3%,i,1.2
CCS(=O)(=O)N1CCC2(CC1)CN(C)[C@@H](CO)c1c2c2ccc(OC)cc2n1C,-2,-3,-1.3,.,-0.4,.,.,i,.
COc1cc(CCCN2CCNC[C@@H]2Cc2ccc(O)cc2)cc(OC)c1OC,3,4,1.5,.,?,0,.,i,-1.0
CN1CCN(C(=O)C[C@@H]2C=C[C@@H](NC(=O)c3ccc4c(c3)OCO4)[C@H](CO)O2)CC1,1,-2,-1.4,.,-11,.,.,i,.
CC(C(=O)NN)c1ccc([N+](=O)[O-])cc1 (centres undefined),2,-2,-1.1,0.68,1.0,13,-6%,i,1.4
CCOc1ccc(C(=O)CCC(=O)NCC(=O)OCc2ccccc2)cc1OCC,8,5,4.6,0.71,-0.6,-3,0%,i,5.5
C[C@H](NC(=O)C1CCN(C(=O)[C@@H]2CCCN2C(=O)OC(C)(C)C)CC1)C(=O)NCc1ccc(F)cc1,.,.,.,.,-0.2,.,.,i,-0.2
O=C(C[C@@H]1CC[C@H](NC(=O)C2CCOCC2)[C@@H](CO)O1)NCc1ccccc1Cl,3,0,-1.5,.,-28,.,.,i,.
Cc1onc(C(=O)Nc2ccc3c(c2)OCO3)c1[N+](=O)[O-],.,.,.,0.7,.,-7,-8%,.,-1.0
O=C(NNc1cccc([N+](=O)[O-])c1)/C(=C\c1cccnc1)NC(=O)c1ccccc1,-6,-3,-3.4,0.64,.,99*,13%,i,-0.5
Cc1cc2cc(CNC(=O)Nc3ccc(Cl)c(Cl)c3)ccc2n1C,-12,13,24,0.8,-0.9,.,-131%,i,-17
CCc1ccc(C2=NNC(=Nc3c(C)n(C)n(-c4ccccc4)c3=O)SC2)cc1,1,8,1.2,0.7,-0.7,28,-2%,i,-2.9
CC1CCCN(C(=O)C2CCN(S(=O)(=O)c3ccccc3)CC2)C1 (centres undefined),5,9,-0.1,0.69,-2.6,.,-4%,i,0.6
CCn1cc(C(=O)NCCCN2CC(C)CC(C)C2)c(=O)c2cc(S(=O)(=O)N(C)C3CCCCC3)ccc21 (centres undefined),2,4,0.1,0.7,3.5,-4,.,i,-0.2
c1ccc(-n2nnc3ccccc32)nc1,.,.,.,0.66,.,1,1%,.,-1.9
CC1C(=O)N2CCCc3cc(NC(=O)C(=O)NCCc4ccc(F)cc4)cc1c32 (centres undefined),3,-3,-0.2,0.69,-0.9,1,-3%,i,0.9
Cc1ccc(CC2CC(=O)N(c3cc(C)ccc3C)C2=O)cc1 (centres undefined),5,0,3.1,0.66,1.3,2,7%,i,3.5
C[C@H](CO)N1C[C@H](C)[C@H](CN(C)S(=O)(=O)c2ccc(F)cc2)Oc2ncc(C#Cc3ccc(C(F)(F)F)cc3)cc2C1=O,4,-20,-2.3,.,-2.9,.,.,i,.
CCc1nnc(NC(=O)/C=C/c2cccs2)s1,3,0,-0.4,0.72,-1.8,.,-6%,i,-1.7
COc1ccc(C(=O)COC(=O)CCN2C(=O)C3C4CCC(C4)C3C2=O)cc1 (centres undefined),-10,-10,-2.0,0.71,-0.5,-5,.,i,0.9
O=C(C1=C(O)C(=O)N(CCN2CCOCC2)C1c1cccc([N+](=O)[O-])c1)c1cc2ccccc2o1 (centres undefined),-2,2,4.3,.,3.7,.,-4%,i,1.5
# (next part)
SMILES,Ecoli rRNA inh,Ecoli rRNA inh OD600,Ecoli rRNA inh RFP,E coli growth,AF4-AF9 inh,ALR H2O2 inh,Vif TR-FRET,FGF22 binding,HNF4A DNA FP
COc1ccc(-c2cc(C(F)(F)F)nc(SCCC(=O)N3CCOCC3)n2)cc1,.,.,.,0.71,.,-4,-2%&-9%,.,-1.1
COc1cccc(-c2ccc3c(c2)O[C@H](CN(C)Cc2cccnc2)[C@@H](C)CN([C@H](C)CO)S3(=O)=O)c1,-26,-32,-2.2,.,7.9,.,.,i,.
Cn1c2ccc(F)cc2c2nnc(NN)nc21,3,-7,-2.2,0.63,0.0,.,-2%,i,1.3
Cc1nccn1CC(O)Cn1c2ccccc2c2ccccc21 (centres undefined),.,.,.,0.69,.,-2,-4%,.,-0.2
CCCNC(=O)N[C@@H]1CC[C@@H](CCn2cc(C3CCCCC3)nn2)O[C@@H]1CO,-1,-1,-1.9,.,-15,.,.,i,.
CC12CC3CC(C)(C1)CC(C(=O)NCc1ccncc1)(C3)C2,-21,-13,-4.6,0.67,-0.3,0,.,i,0.8
CC(C)OC(=O)/C(C#N)=C/c1c[nH]c2ccccc12,-6,-15,-3.7,0.66,7.8,7,-2%,i,0.6
Cc1cc(C)n2nc(S(=O)(=O)NCCc3ccccc3)nc2n1,8,13,-2.4,0.77,-1.0,-8,-4%,i,2.5
O=C(COC(=O)c1cccc([N+](=O)[O-])c1)NNC(=O)c1cccs1,12,13,-2.6,0.67,0.4,1,4%,i,2.8
Nc1nc(Cl)nc2c1ncn2C1CC(O)C(CO)O1 (centres undefined),.,.,.,0.64,-2.5,-1,.,i,1.9
C/C=C/c1ccc([C@@H]2[C@@H](CO)N(C(=O)C3CCCCC3)C23CN(C(=O)NC(C)C)C3)cc1,3,1,4.1,.,0.2,.,.,i,.
Cc1ccc2nc(SCCCCOc3ccccc3)[nH]c2c1,.,.,.,.,.,8,25%,.,-0.9
COc1ccc(-c2coc3c(CN4CCCCC4C)c(O)ccc3c2=O)cc1 (centres undefined),4,8,1.7,0.67,-6.6,.,-9%,i,1.6
C=CCN(c1ccccc1)S(=O)(=O)c1cccc2cccnc12,-24*,-15*,-10*,0.69,6.2,4,0%,i,-0.5

# Look-ups from the results shown.
# C/C=C/c1ccc([C@@H]2[C@@H](CO)N(C(=O)C3CCCCC3)C23CN(C(=O)NC(C)C)C3)cc1 @ AF4-AF9 inh = 0.2
# O=C(COC(=O)c1cccc([N+](=O)[O-])c1)NNC(=O)c1cccs1 @ HNF4A DNA FP = 2.8

# High-throughput results from PubChem BioAssay.

# A portion of the library; rates above refer to the full screens.
